Vif TR-FRET = inhibitors of Vif binding to APOBEC3G peptide, primary screen, biochemical, TR-FRET, GST-Vif 1-94, biotin-A3G peptide, dose response retest (AID 1117319); Virion infectivity factor (Human immunodeficiency virus type 1 group M subtype B (isolate …; TR-FRET GST-Vif / biotin-A3G peptide binding; higher % means a stronger effect; test concentration not given here; strong numbers were not always called active; inhibition, %, or IC50 in µM where a hit was titrated; 260,000 tested, 0.57% active;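 active = above the screen mean plus three standard deviations and confirmed in dose response; inconclusive = results disagree or hit not tested in dose response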;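 note: Vif residues 1-94 fused to GST binding biotinylated APOBEC3G peptide 110-148; 0% = full assay without inhibitor and 100% = GST in place of GST-Vif; retest series ran down from 100 µM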
Ecoli growth = E. coli growth inhibition, primary screen, OD600; Escherichia coli growth, 23 h; hits give low values; OD600 absorbance (no concentration beside the values); 330,000 tested, 0.21% active;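 active = OD600 absorbance below the run mean of sample wells minus 3.6 SD, in any replicate, cut at about 0.56 in these data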;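 note: stock transfer was 300 nL into about 60 µL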
FGF22 binding = binders of human FGF22 protein, primary screen, FGF22 synaptogenesis inhibitor project, biophysical, thermal shift, single point. 340,000 tested, 1.5% active. calls only at 9.99 µM. recombinant FGF22 thermal shift, SYPRO orange fluorescence; percent of sucrose octasulfate shift, DMSO zero. Fibroblast growth factor 22 (Homo sapiens), Q9HCT0;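 active = melting point raised past a set limit in the mean and every replicate; inconclusive = no clear call; three in four hits are not shown here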
Target sequence (Q9HCT0 whole entry, looked up): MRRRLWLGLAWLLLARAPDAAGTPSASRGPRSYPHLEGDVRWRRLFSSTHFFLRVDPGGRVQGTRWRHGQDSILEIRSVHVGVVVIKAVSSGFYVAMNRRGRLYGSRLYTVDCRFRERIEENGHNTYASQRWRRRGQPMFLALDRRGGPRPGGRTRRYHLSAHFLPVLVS
HNF4A DNA FP = change in binding of human HNF4A to DNA, primary screen, biochemical, fluorescence polarization, FITC-DNA; 360,000 tested, 0.3% active; AID 1224865, 2016; activity change, % at 10 µM; 1 h; in the data active = activity change above about 30%, passing the limit was not always enough;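 note: controls were the assay level and a saturating level of protein; the project sought stronger binding though the title names inhibitors; some compounds called inactive have numbers as strong as hits; positive values seem to mean higher polarization but the record does not say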
Target sequence (P41235 whole entry, looked up): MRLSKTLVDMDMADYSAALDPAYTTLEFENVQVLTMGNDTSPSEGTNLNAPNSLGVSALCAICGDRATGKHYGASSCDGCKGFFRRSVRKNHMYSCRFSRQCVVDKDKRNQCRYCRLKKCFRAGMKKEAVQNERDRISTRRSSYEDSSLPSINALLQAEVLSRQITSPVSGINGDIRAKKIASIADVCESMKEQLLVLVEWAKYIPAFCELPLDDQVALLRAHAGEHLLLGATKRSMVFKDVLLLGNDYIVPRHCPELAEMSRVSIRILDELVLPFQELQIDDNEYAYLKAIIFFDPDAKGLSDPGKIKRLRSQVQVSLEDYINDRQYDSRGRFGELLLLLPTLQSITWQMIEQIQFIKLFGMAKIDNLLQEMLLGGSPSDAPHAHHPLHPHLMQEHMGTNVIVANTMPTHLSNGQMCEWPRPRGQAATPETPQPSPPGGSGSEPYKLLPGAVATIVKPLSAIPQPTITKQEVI
ALR H2O2 inh = inhibitors of human ALR sulfhydryl oxidase, primary screen, biochemical, H2O2 detection, HRP-luminol luminescence, single point; purified ALR, DTT oxidation; 290,000 tested, 3.8% active; inhibition, % (no concentration beside the values); AID 485317, 2010; FAD-linked sulfhydryl oxidase ALR (Homo sapiens), P55789;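 active = mean and each replicate at 75% or more; inconclusive = only one of the two met; inactive = neither met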;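 note: stock transfer was 7.5 nL into about 7.5 µL; 0% = neutral wells and 100% = wells with inactivated enzyme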
Target sequence (P55789 whole entry, looked up): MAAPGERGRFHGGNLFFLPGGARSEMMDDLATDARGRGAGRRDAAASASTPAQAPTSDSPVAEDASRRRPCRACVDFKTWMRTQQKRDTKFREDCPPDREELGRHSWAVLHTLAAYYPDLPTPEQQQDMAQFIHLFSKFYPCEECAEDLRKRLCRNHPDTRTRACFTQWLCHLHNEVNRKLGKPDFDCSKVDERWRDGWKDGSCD
Ecoli rRNA inh = reduced GFP signal of wild-type E. coli, primary screen, bacterial rRNA inhibitor project, GFP/RFP fluorescence, OD600, single point | 350,000 tested, 1.6% active | E. coli WT GFP vs humanized-ribosome RFP mutants, 24 h; hits give low values; DMSO median 0, no signal -100 | GFP signal change (wild-type ribosome), % (concentration not given with the values);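 active = significant combined selectivity score with lowered wild-type GFP, culture density cut under 30%, mutant RFP and density less affected; inactive = any of these conditions unmet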; note: one replicate is shown; some compounds called inactive have numbers as strong as hits
MLL AF4-AF9 inh = inhibitors of AF4 peptide binding to AF9, primary screen, biochemical, AlphaScreen, biotin-AF4 peptide, FLAG-AF9, single point; Protein AF-9 (Homo sapiens), P42568; inhibition, % at 10 µM; 350,000 tested, 0.47% active;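 active = every replicate reaching a set inhibition limit, whatever the replicate mean, cut at about 25% in these data; inconclusive = mean inhibition reaches that limit but some replicates miss it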;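 note: 0% = plate neutral control median and 100% = total signal loss; the record names both 10 and 1 µM as test concentration; the first replicate is given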
Ecoli rRNA inh OD600 = further read-out of Ecoli rRNA inh, marked with its call; OD600 change, %; measured here: OD600 growth;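 optical density of the mix in the first replicate; 0 = DMSO median and -100 = no signal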
Ecoli rRNA inh RFP = recorded beside Ecoli rRNA inh, whose call it bears; RFP signal change, %; measured here: RFP humanized mutant strains;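 first replicate; 0 = DMSO median and -100 = no signal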
An asterisk follows results filed as active; i = inactive; ? = inconclusive; . = not tested or not shown; & = joins results of further samples. A portion of the library; count on the stated rates, not on these rows.

SMILES	Vif TR-FRET	Ecoli growth	FGF22 binding	HNF4A DNA FP	ALR H2O2 inh	Ecoli rRNA inh	Ecoli rRNA inh OD600	Ecoli rRNA inh RFP	MLL AF4-AF9 inh
Cc1cccc(NC(=O)c2ccc3c(c2)CCN3S(C)(=O)=O)c1C	.	0.73	.	-2.1	-4	10	2	0.1	-2.0
COCCn1c(=O)[nH]c2cc(C(=O)NCCc3ccc(OC)c(OC)c3)ccc2c1=O	-4%	0.69	.	0.1	-18	.	.	.	.
COCCCN1C(=O)C(CC(=O)NCCN2CCOCC2)CC(C(=O)N(C(C)C)C(C)C)=C1C (stereo not drawn)	.	.	i	-2.0	.	0	10	-2.7	0.0
COc1ccc(Cc2nnc(Nc3c(C)cccc3C)o2)cc1OC	1%	0.69	i	1.3	.	7	7	-2.5	-4.4
CC(=O)c1ccc(N2CCN(C(=O)CCC(=O)Nc3ccc4nc(N5CCN(C)CC5)cc(C)c4c3)CC2)cc1	.	0.68	.	1.0	-15	-13	-28	-1.7	6.7
Cc1ccccc1NS(=O)(=O)c1ccc(C(=O)OCC(=O)NCC(C)C)cc1	-2%	0.69	i	31*	1	-5	-10	-1.3	-1.8
COc1ccc(-n2cnnc2SCC(=O)NC2CC2)cc1	-2%	.	i	1.1	.	.	.	.	0.2
O=C(c1ccc(F)cc1)N1CC2(C1)[C@H](c1ccccc1)[C@H](CO)N2Cc1ccccn1	.	.	i	.	.	0	1	-2.3	2.2
COc1ccc(-c2nc3cc(NC(=O)c4ccc5c(c4)OCO5)ccc3o2)cc1	-2%	0.74	.	-2.2	.	.	.	.	.
O=C(O)CCC(=O)N1CCc2cc(S(=O)(=O)N3CC=C(c4ccccc4)CC3)ccc21	10%	0.79	i	2.1	9	-8	-14	1.7	8.5
COc1cccc(NC(=O)C[C@@H]2CC[C@@H]3[C@@H](COc4ccc(NC(=O)C5CC5)cc4C(=O)N3C)O2)c1	.	.	i	.	.	-2	-5	0.2	-0.5
O=C(Cn1cnc2c(cnn2-c2ccc(F)cc2)c1=O)NCCc1ccccc1	9%	0.8	i	1.6	7	11	10	2.2	2.7
N#Cc1ccccc1OCC(=O)OCC(=O)NC1CCCCC1	-4%	0.68	i	-3.1	.	0	-3	-0.3	-9.7
COc1ccc(C(=O)Oc2ccc3ccc(=O)oc3c2)cc1	4%	0.69	i	-2.7	-8	16	13	0.2	-13
Cc1nnc(NC(=O)CSc2ncc(-c3ccccc3)[nH]2)s1	6%	0.7	i	5.0	62	6	0	4.2	-3.0
COc1ccc(CCC(=O)NCCc2ccc(Cl)cc2)cc1	.	0.65	i	1.6	-11	10	2	-1.0	-1.1
CCOC(=O)Cn1nc(NC(=O)c2ccc(C(=O)OC)cc2)cc1C	-3%	0.61	i	-3.7	-44	2	8	1.9	-13
CCOC(=O)/C(N=Nc1ccc(Cl)cc1)=C(/O)c1ccc([N+](=O)[O-])cc1	0%	0.76	.	1.7	-12	.	.	.	.
CCCCNS(=O)(=O)c1ccc2nc(-c3cccnc3)cc(C(=O)NC3CCCC3)c2c1	0%	0.77	i	0.7	-10	10	8	-1.8	-2.4
COc1ccc2c(c1OC)C(=O)N(c1nc(SC)n[nH]1)C2=O	.	0.65	i	-1.6	-4	25	17	4.5	-1.3
Cc1ccccc1C(=O)N(CC(=O)Nc1sc(C)c(C)c1C(N)=O)C1CCCC1	6%	0.68	i	0.1	13	1	-17	0.8	2.5
C#CCN1C=CC(=O)[C@@H](OC(=O)Nc2ccc(C)cc2)[C@H]1c1ccccc1Br	.	.	i	1.3	.	-40	-73	-8.9	-3.8
CCCC(C)NC(=O)Cc1ccc(S(=O)(=O)N2CCOCC2)s1 (stereo not drawn)	-6%	0.69	i	1.5	-15	16	7	1.9	-0.8
O=C(NN=C(Cc1ccccc1)Cc1ccccc1)C1CC1	2%	0.74	i	0.1	1	-1	6	-0.4	3.6

Of the compounds above, these contain an aryl thioether with sulfur outside any ring.
SMILES	Vif TR-FRET	Ecoli growth	FGF22 binding	HNF4A DNA FP	ALR H2O2 inh	Ecoli rRNA inh	Ecoli rRNA inh OD600	Ecoli rRNA inh RFP	MLL AF4-AF9 inh
COc1ccc(-n2cnnc2SCC(=O)NC2CC2)cc1	-2%	.	i	1.1	.	.	.	.	0.2
Cc1nnc(NC(=O)CSc2ncc(-c3ccccc3)[nH]2)s1	6%	0.7	i	5.0	62	6	0	4.2	-3.0
COc1ccc2c(c1OC)C(=O)N(c1nc(SC)n[nH]1)C2=O	.	0.65	i	-1.6	-4	25	17	4.5	-1.3

The list continues.
SMILES	Vif TR-FRET	Ecoli growth	FGF22 binding	HNF4A DNA FP	ALR H2O2 inh	Ecoli rRNA inh	Ecoli rRNA inh OD600	Ecoli rRNA inh RFP	MLL AF4-AF9 inh
Cc1ccc(OCC(=O)NNC(=O)C2CCC2)cc1C	-5%	0.65	i	1.8	0	1	5	-1.8	-0.8
COCCCNC(=O)C[C@H]1C[C@@]2(C(=O)OC)C(=C[C@H](C(C)(C)C)O[C@@H]2C)N(CCC2=CCCCC2)C1=O	.	.	i	.	.	1	-3	-2.4	-0.1
C[C@@H]1CN([C@@H](C)CO)C(=O)c2cc(NC(=O)CCCN(C)C)ccc2O[C@@H](C)CCCCO[C@@H]1CN(C)S(=O)(=O)c1ccccc1	.	.	i	.	.	0	-1	0.2	2.4
Cc1cc2nc(-c3ccccc3)c(Cc3ccccc3)n2c(C)c1Br	.	.	i	3.5	.	25	17	2.1	5.2
NS(=O)(=O)c1ccc(NC(=O)COC(=O)c2ccc3c(c2)OCCO3)cc1	-3%	0.69	.	6.4	.	-1	6	2.7	-1.3
CO[C@@H]1CN(C)C(=O)c2cc(NC(=O)C3CC3)ccc2OC[C@@H](C)N(Cc2cccnc2)C[C@@H]1C	.	.	i	.	.	-5	-10	-2.3	0.2
Cc1c(C(=O)N2c3ccccc3Sc3ccccc32)cccc1[N+](=O)[O-]	.	0.68	i	4.2	.	-15	2	0.5	12
O=C(CCNC(=O)c1ccc(Br)cc1)NCC1CCCO1 (stereo not drawn)	4%	0.64	i	-2.6	-11	6	8	3.3	-11
CCCC#Cc1cnc2c(c1)C(=O)N([C@@H](C)CO)C[C@H](C)[C@@H](CN(C)Cc1ccc(F)cc1)O2	.	.	i	.	.	3	7	-2.3	3.5
Cc1c(NC(=O)CN2CCCC(C)C2)ccc2nsnc12 (stereo not drawn)	2%	0.71	i	3.9	7	4	2	-1.0	2.2
CCOC(=O)N1CCN(C(=O)CSc2ccc(C(F)(F)F)cc2[N+](=O)[O-])CC1	.	0.69	i	-2.5	.	-2	-4	-1.6	3.5
COC(=O)C1=C(CCc2ccccc2)NC(=O)NC1c1ccc(Br)cc1 (stereo not drawn)	.	0.68	i	-1.6	-7	-25	-30	10	2.4
CC(C)C(=O)c1cn(CC(=O)NCC2CCCO2)c2ccccc12 (stereo not drawn)	-1%	0.69	.	-1.8	.	.	.	.	.
O=C1/C(=C/Nc2cccc([N+](=O)[O-])c2)CCc2ccccc21	-6%	.	.	3.4	-12	.	.	.	.
CCOC(=O)C1CCN(C(=O)c2cc(S(=O)(=O)N3CCCCCC3)ccc2OC)CC1	5%	0.66	i	0.4	-2	-2	6	-0.8	4.0
COc1ccccc1-c1nnc(SCC(=O)NC2CC2)n1C	-2%	0.63	i	3.0	-15	2	20	2.9	0.2
COc1cc2c(cc1OC)CN(CC(O)c1ccccc1)CC2 (stereo not drawn)	.	0.65	i	1.0	-27	11	9	0.0	3.3
COc1ccc(NC(=O)c2cccc(N3C(=O)C4C5C=CC(C5)C4C3=O)c2)cc1 (stereo not drawn)	.	0.69	i	0.3	-2	6	4	2.5	-1.1
CCC(=O)N1C[C@H](C)[C@H](OC)CN(C)C(=O)c2cc(NC(=O)NC(C)C)ccc2OC[C@H]1C	.	.	i	.	.	3	2	-1.1	2.2
CC(C)CC#Cc1ccc2c(c1)O[C@H](CN(C)C(=O)CC1CC1)[C@@H](C)CN([C@H](C)CO)S2(=O)=O	.	.	i	.	.	-13	-51	31	3.8
CC1CC(C)CN(C(=O)c2nn(C)c3c2CS(=O)(=O)c2ccccc2-3)C1 (stereo not drawn)	.	0.65	i	1.3	38	1	1	-3.1	-3.7
COC(=O)c1ccccc1NC(=O)Nc1ccc2c(c1)OCO2	2%	0.7	.	1.9	-9	.	.	.	.
COc1ccc(NC(=O)N(C)C[C@H]2Oc3ccc(NC(=O)Cc4cn(C)c5ccccc45)cc3C(=O)N([C@@H](C)CO)C[C@@H]2C)cc1	.	.	i	.	.	0	0	-1.8	2.2
CCc1nn(CCCC(=O)N2CCN(c3cccc(C)c3C)CC2)c(=O)c2cc3occc3n12	.	0.7	i	1.6	0	-2	2	-0.2	2.1
O=C1CCCC2=C1C(c1ccccc1)CC(=O)N2c1ccccc1 (stereo not drawn)	-4%	0.79	.	1.0	-2	.	.	.	.
N#Cc1c(/N=C/c2cccs2)sc2c1CCCCC2	?	.	.	2.0	95*	.	.	.	.
O=C(O)/C=C/C(=O)N(Cc1ccc2c(c1)OCO2)C1CC(=O)N(CCc2ccccc2)C1=O (stereo not drawn)	-11%	0.66	.	0.8	12	-1	6	1.7	-1.4
Cn1c(NCCCO)nc2c1c(=O)n(Cc1ccccc1F)c(=O)n2C	-3%	0.73	.	-0.8	-4	-3	1	-2.5	.
O=C(NNc1c(Cl)cncc1Cl)c1sccc1Cl	5%	0.63	i	3.0	0	-3	-5	1.6	-2.9
CCOc1ccc(C(CC(=O)O)NC(=O)C(CC)c2ccccc2)cc1 (stereo not drawn)	-1%	0.69	i	-1.8	3	8	11	-1.4	0.0
C[C@@H]1CN([C@H](C)CO)C(=O)Cc2cc(NS(=O)(=O)c3ccc(F)cc3)ccc2O[C@@H]1CN(C)S(=O)(=O)c1ccc(F)cc1	.	.	i	.	.	-2	-8	2.2	-1.0
CC=Cc1ccc2n(c1=O)C[C@@H]1[C@@H](CO)[C@H](C(=O)NCCC)[C@H]2N1C(=O)c1ccccc1 (mixture of isomers)	.	.	i	.	.	1	7	-4.0	0.0
O=C(NCC[C@H]1CC[C@@H](NC(=O)c2cccnc2)[C@@H](CO)O1)Nc1ccc(Cl)cc1	.	.	i	.	.	1&-7	0&-9	-0.1&3.4	6.2
COc1ccc(S(=O)(=O)NC(C)C(=O)Nc2ccc3c(c2)OCO3)cc1OC (stereo not drawn)	.	0.66	i	2.9	-8	15	8	1.3	-5.9
CCC(c1nnnn1C(C)(C)C)N1CCN(c2cc(Cl)ccc2C)CC1 (stereo not drawn)	0%	0.78	.	1.4	-8	.	.	.	.
C#CCN(C[C@H]1[C@H](OC(=O)NCc2ccccc2F)[C@H](OC(=O)NCc2ccccc2F)C[C@H]2C(=O)N(c3ccccc3)C(=O)[C@@H]12)S(=O)(=O)c1ccc(C)cc1	-8%	.	i	0.1	.	12	16	-1.6	-0.5
CC(C)N1C(=S)SC2CS(=O)(=O)C=C21 (stereo not drawn)	2%	0.7	.	-2.5	0	.	.	.	.

High-throughput results (PubChem)
